Source: PubChem BioAssay
TAR Tat displ – HIV-1 TAR-Tat binding disruption. HIV-1 TAR RNA, Tat peptide displacement FRET; hits give high values. z-score (concentration not given with the values). 100,000 tested, 0.6% active. AID 1259389;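 also: score is relative to mean and SD of negative controls; some compounds called inactive have numbers as strong as hits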
CDC25B CDK2 inh – human CDC25B-CDK2/CyclinA binding inhibition | 94,000 tested, 0.72% active | P30305+P24941 | HTRF CDC25B-CDK2/CyclinA binding, anti-His/anti-Flag; hits give high values | z-score (test concentration not listed);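 also: score is relative to mean and SD of negative controls; strong numbers were not always called active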
Numbers without * were called inactive; . = no result given.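 The calls were made as follows: active = z-score from 3 up in half or more of its runs; inactive = the rest.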

SMILES	TAR Tat displ	CDC25B CDK2 inh
Cc1cccc2nc(CSc3nnc(-c4ccccc4)c(-c4ccccc4)n3)cc(=O)n12	-7.2	.
CN1C(=O)Cc2cc(S(=O)(=O)CCC(=O)NCc3cccs3)ccc21	0.64	.
Cc1ccccc1C1CC(c2ccc(NS(C)(=O)=O)cc2)=NN1C(=O)C(C)C (configuration not stated)	.	-1
Cc1ccc(-c2nnc3ccc(SCC(=O)NCc4ccc5c(c4)OCO5)nn23)cc1	.	-1.4
CC(=O)N(C)Cc1nc2ccccc2n1CC(=O)N(CC(C)C)CC(C)C	0.45	-0.94
Cc1ccc(C)c(S(=O)(=O)Nc2ccc(Cl)c(N3CCCS3(=O)=O)c2)c1	0.13	.
CCc1nc2nc(C)cc(NCCc3ccc(Cl)cc3)n2n1	-0.63	-1.1
Cn1c(/C=C/c2ccc(Br)cc2)c([N+](=O)[O-])c(=O)n(C)c1=O	0.32	1.3
CC1CCCCN1C(=O)Cn1ncc2c([nH]c3ccccc32)c1=O (configuration not stated)	0.21	.
O=C(CSc1nnc2sc3ccccc3n12)Nc1ccc2c(c1)OCO2	.	-1.3
CC(C)c1ccc(N(C(=O)Cc2cccs2)C2C=CS(=O)(=O)C2)cc1 (configuration not stated)	-0.07	-2.4
Oc1ccccc1C1=NN2C(C1)c1cc(Br)ccc1OC2c1ccsc1 (configuration not stated)	-6.2	-0.48
Cc1nn(-c2ccc(N3CCOCC3)nn2)c(C)c1CCC(=O)Nc1cc(F)ccc1F	0.62	.
CC1(C)CC(=O)C2=C(C1)Nc1nnnn1C2c1ccc(F)cc1 (configuration not stated)	.	-1.9
CCCCc1ccc(N2CC(C(=O)Nc3sc4c(c3C#N)CCCC4)CC2=O)cc1 (configuration not stated)	2.5	-0.78
O=C(C1CCCN1c1nnc(N2CCCC2=O)s1)N1CCN(c2ccc(F)cc2)CC1 (configuration not stated)	0.68	.
COc1ccc(CCNc2oc(COc3ccc(Cl)cc3)nc2C#N)cc1OC	-0.09	-1
O=C(c1ccccc1F)n1c(=O)oc2ccccc21	-0.84	.
Cn1c2ccccc2n2c(=S)[nH]nc12	.	-5.6
CCCOC(=O)c1c(NC(=O)c2nc3ncccn3n2)sc(C(=O)OC)c1C	0.24	-2.5
CSc1ccccc1NC(=O)C1(c2cccs2)CCOCC1	-0.06	.
CCc1ccccc1Nc1ncnc2ccccc12	.	-0.05
O=C(NCCCN1CCN(c2ccccc2)CC1)Nc1ccccc1Br	0.57	-3.1
CCCCCC(=O)c1c(O)c2ccccc2oc1=O	.	-1.4
O=C(CCCn1sc2ccccc2c1=O)NCc1ccccc1	0.95	-1.4
O=C(NCc1cccnc1)c1c2c(nc3ccccc13)C(=O)N(C1CCCCC1)C2	0.46	.
COC(=O)c1scc(NS(=O)(=O)c2ccccc2)c1C(=O)OC	.	-1.3
CCCCNc1ncnc2sc(C(=O)O)c(C)c12	0.95	.
O=C(Nc1ccc2c(c1)OCO2)c1cc2n(n1)C(C(F)(F)F)CC(c1ccco1)N2 (configuration not stated)	-1.6	-0.01
O=C(c1ccco1)N1CCN(C(=O)C2CCN(S(=O)(=O)c3cnc[nH]3)CC2)CC1	-0.57	-1.4
CCN(CC)S(=O)(=O)c1ccc2c(c1)CC(C(=O)NCCc1c[nH]c3ccccc13)N2C(C)=O (configuration not stated)	1.6	.
O=C(CCc1nc2sc3c(c2c(=O)[nH]1)CCCCC3)N1CCN(c2ccc(Cl)cc2)CC1	0.77	.
CC(CC(=O)Nc1ccc(-c2ccno2)cc1)S(=O)(=O)c1ccc2c(c1)CCN2C(=O)C1CC1 (configuration not stated)	0.4	.
Cc1[nH]c(C)c(S(=O)(=O)N2c3ccccc3CC2C)c1C(=O)N1CCCC1 (configuration not stated)	0.39	.
CCCCc1nc(SCC(=O)NC(C)C)c2c(=O)n(C)c(=O)n(C)c2n1	2.2	.
CCN(CCNc1cc(C)nc2c(-c3ccccc3OC)c(C)nn12)c1ccccc1	.	-0.72
COCCn1c(SCC(=O)N2CCCc3ccccc32)nc2c([nH]c3ccccc32)c1=O	2	.
O=C(Nc1ccc(O)c(-c2nc3ccccc3o2)c1)c1ccccc1Br	.	-3.4
Cn1c(=O)n(C)c2cc(S(=O)(=O)Nc3ccccc3)ccc21	1.5	-1.5
O=C(Nc1ccc(Cl)cc1)N1CCN(c2ccc3nnc(-c4ccccc4)n3n2)CC1	.	-0.42
Cc1ccc(N(CC2=CC3C=CC=CC3NC2=O)C(=O)c2cncc(Br)c2)cc1 (configuration not stated)	-0.07	-1.4
CCOc1ccc(-c2cccc(NS(=O)(=O)c3ccc(C)c(C)c3)c2)nn1	0.4	.
COc1ccc(C2C(=O)N(C3CCCCC3)CC(=O)N2CC2COc3ccccc3O2)cc1 (configuration not stated)	.	-1.5
COc1ccccc1C1CC(=O)NC2=C1C(=O)CC(c1cccs1)C2 (configuration not stated)	0.74	-1
CC(C)Cn1cc(NC(=O)NC2CC2)c2ccccc2c1=O	0.43	.
O=C(Cn1cc(S(=O)(=O)Cc2cccc(Cl)c2)c2ccccc21)NCC1CCCO1 (configuration not stated)	-0.18	.
CSc1nnc(-c2nonc2NC(C)=O)n1-c1ccccc1	4.7	-1.6
O=c1[nH]c(SCC#CCO)nc2ccccc12	.	-1.4
c1cncc(-c2nc3c4ccccc4nc(NCCCN(Cc4ccco4)C4CCCC4)n3n2)c1	0.35	-1.1
Nc1nc(N2CCOCC2)nc(NCCO)c1[N+](=O)[O-]	0.6	.
O=C1C(=O)N(c2nncs2)C(c2ccc(F)cc2)/C1=C(\O)c1ccccc1 (configuration not stated)	-0.68	-1.4
CC(C)=NOC(=O)c1csc(Cc2c(Cl)cccc2Cl)n1	.	-1.4
CCCC12CN3CC(C)(CN(C1)C3c1ccc(OC(C)C)cc1)C2=O (configuration not stated)	.	-0.56
CCCCN(C)CCNC(=O)C1CCCN(S(=O)(=O)c2ccc3c(c2)oc(=O)n3C)C1 (configuration not stated)	1.4	-0.2
O=C(CC1C(=O)N(c2ccc(F)cc2)C(=O)N1Cc1ccc2c(c1)OCO2)Nc1ccc(F)cc1 (configuration not stated)	.	-1.7
CC1(C)CC(=O)C2=C(C1)NC(Nc1nc3ccccc3o1)=NC2c1ccccc1 (configuration not stated)	.	0.32
Cc1cc(C)c(S(=O)(=O)Nc2ccc(Cl)c(N3CCCS3(=O)=O)c2)c(C)c1	0.56	.
COCc1cc(=O)[nH]c(Nc2nc(C)c3ccccc3n2)n1	.	-0.33
C=CCSc1nc(=O)c2c(n1C)NC(=O)CC2c1ccc2c(c1)OCCO2 (configuration not stated)	2.2	-1.3
COc1cccc(-c2noc(COc3ccccc3Cl)n2)c1	0.37	-6.5

More compounds.
SMILES	TAR Tat displ	CDC25B CDK2 inh
CCN(CC)CCNc1nc(Nc2cccc(OC)c2)c2cnn(C)c2n1	0.6	.
COc1ccc(N(Cc2nc3ccccc3[nH]2)C2=NC3CS(=O)(=O)CC3S2)cc1 (configuration not stated)	0.32	0.73
NC(=O)CSc1nc2c(oc3ccccc32)c(=O)n1Cc1ccco1	0.1	-0.67
C/C=C(/C(=C/C)c1ccc(O)cc1)c1ccc(O)cc1	0.9	.
Cc1c2c(n3c(nc4ccccc43)c1C#N)SCC2	.	-3.6
CCNC(=O)c1ncoc1-c1cccs1	1.8	.
COc1ccc(C2CC(=O)C3=C(C2)Nc2nnnn2C3c2cccc(OC)c2)cc1 (configuration not stated)	0.35	.
COCCCN1C(=O)c2[nH]nc(-c3ccccc3O)c2C1c1cc(Br)c(O)c(OC)c1 (configuration not stated)	-1.3	-0.61
CCn1c(CN2CCCCC2)nc2ccccc21	0.3	-0.7
N#Cc1ccccc1NC(=O)CC1Sc2ccc(C(F)(F)F)cc2NC1=O (configuration not stated)	.	-3.9
CCc1ccc(-n2nc(C)c3c(C)cc(=O)n(Cc4cc(=O)n5ccccc5n4)c32)cc1	0.88	.
O=C(Nc1nnc2n1CCCS2)c1ccco1	1.3	.
O=C(O)C1Cc2cc(O)ccc2CN1 (configuration not stated)	.	-1.3
O=C1CCCC2=C1C(c1cccnc1)N(C(=O)c1ccccc1)c1ccccc1N2 (configuration not stated)	1.9	0.19
CSc1nc(-c2ccccc2)nc(SC)c1C#N	.	-2.5
Cc1ccc(NC2=C(Cl)C(=O)OC2OC(=O)c2ccco2)cc1 (configuration not stated)	.	2.5
Oc1ccc(C2CC(c3ccccc3O)=Nc3ccccc3S2)cc1 (configuration not stated)	.	-2.1
CC(C)CCNC(=O)C1CCN(C(=O)N(C)C)CC1	2.1	.
CC1(C)Cc2c(sc3nc(SCc4ccccc4)n4cnnc4c23)CO1	2.3	-0.76
OC(CNc1ccc(Br)cc1)Cn1nnnc1-c1ccccc1 (configuration not stated)	-0.05	-0.88
COC(=O)COc1ccc2c(c1)C(=O)c1cc(OCC(=O)OC)ccc1-2	-0.87	-0.08
CCCc1nc2nc(C)cc(Nc3ccc(Br)cc3F)n2n1	1	-0.41
Clc1cccc(-c2noc3ncnc(NC4CC4)c23)c1	0.11	.
Cn1cnc(S(=O)(=O)N2CCN(c3cccc(Cl)c3)CC2)c1	2.6	.
Cc1ccc(S(=O)(=O)N(c2ccccc2)C2CC(C)Nc3ccccc32)cc1 (configuration not stated)	2.3	-1.1
CC(C)Cn1c(NC2CCCCC2)nc2c1c(=O)[nH]c(=O)n2C	-1.4	-0.49
CCCc1nc2ccccc2n1CCOc1ccccc1	1.9	-0.62
O=C(NCc1ccccc1)NC1(C(F)(F)F)Oc2ccccc2O1	.	1.1
Cn1c2c(c(=O)n(C)c1=O)CN(Cc1ccc(F)cc1)CN2	1	-0.18
CCCN(CCC)C(=O)Cn1ncc2c1-c1ccccc1OC2	-0.5	-1.1

Compound profiles, as listed above.
Cc1ccc(S(=O)(=O)N(c2ccccc2)C2CC(C)Nc3ccccc32)cc1 (configuration not stated) in the list: TAR Tat displ: 2.3; CDC25B CDK2 inh: -1.1
CC(C)Cn1c(NC2CCCCC2)nc2c1c(=O)[nH]c(=O)n2C in the list: TAR Tat displ: -1.4; CDC25B CDK2 inh: -0.49

More compounds:
SMILES	TAR Tat displ	CDC25B CDK2 inh
O=C(C1COc2cc(S(=O)(=O)NCCCN3CCOCC3)ccc2O1)N1CCOCC1 (configuration not stated)	0.07	.
Cc1noc2ncnc(NCCCN3CCOCC3)c12	0.05	.
CN(C(=O)c1cc2c(s1)-c1ccc(Cl)cc1S(=O)(=O)C2)c1ccccc1	1.8	-3.4
N#C/C(=C\O)c1nc2ccccc2s1	.	-0.13
Cc1ccc2oc(-c3cc(NC(=O)c4cccs4)ccc3O)nc2c1	.	-4.2
Nc1nc(/C=C/c2ccccc2)nc(-c2ccccc2O)n1	-0.1	-0.07
Cc1ccccc1Cn1cccc1CNS(=O)(=O)c1ccc(CC(C)C)cc1	-0.56	.
O=[N+]([O-])c1cccnc1Sc1cc(Cl)ccc1Cl	.	-0.04
CCOc1nc(-c2ccccc2)ccc1-c1noc(COC)n1	-1.3	-0.15
O=C(NCc1csc(-c2cccs2)n1)c1cc(F)cc2c1OCOC2	.	-1.1
CCCn1c2ccccc2c2cnn(CC(=O)NCC3CCCN3CC)c(=O)c21 (configuration not stated)	1.4	.
O=C1N(Cc2ccccc2F)c2ccccc2S(=O)(=O)N1Cc1ccc(F)cc1	1.1	.
Cc1[nH]c2ccccc2c1C1(O)C(=O)N(Cc2ccccc2Cl)c2ccccc21 (configuration not stated)	1.6	1.9
CCCCNC(=O)C1=Cc2ccccc2OC=C1	-0.17	-0.65
Cc1cccc(NC(c2ccc3c(c2)OCO3)c2ccc3ccc(C)nc3c2O)n1 (configuration not stated)	0.52	-3.7
CC1Cc2cc(S(=O)(=O)N(C)c3ccc(Br)cc3)ccc2N1C(=O)C1CC1 (configuration not stated)	-0.37	.
C=CCn1c(=O)n(CCOC)c(=O)c2sc3ccccc3c21	.	-1.3
Cc1noc(/C=C/c2cccs2)c1S(=O)(=O)N1CCCC(C(=O)NC2CC2)C1 (configuration not stated)	-0.07	.
Cn1c(=O)c(=O)n(C)c2cc(S(=O)(=O)N3CCCN(c4nc5cccnc5s4)CC3)ccc21	-0.31	.
COc1ccccc1OCC(O)CN1CCC(C)CC1 (configuration not stated)	1.6	-0.68
COc1ccc(C)cc1Nc1nc2ccc(Cl)cc2n2cnnc12	0.82	-2.8
Cc1cc(NS(=O)(=O)c2ccc(CN3C(=O)c4cccnc4C3=O)s2)ccc1Br	-1.2	.
CC(C)OCCCNc1nc2c(-c3ccccc3)nnn2c2ccccc12	2.4	-1

Structures listed so far that contain an NH in an aromatic ring, in the order listed:
SMILES	TAR Tat displ	CDC25B CDK2 inh
CC1CCCCN1C(=O)Cn1ncc2c([nH]c3ccccc32)c1=O (configuration not stated)	0.21	.
Cn1c2ccccc2n2c(=S)[nH]nc12	.	-5.6
O=C(c1ccco1)N1CCN(C(=O)C2CCN(S(=O)(=O)c3cnc[nH]3)CC2)CC1	-0.57	-1.4
CCN(CC)S(=O)(=O)c1ccc2c(c1)CC(C(=O)NCCc1c[nH]c3ccccc13)N2C(C)=O (configuration not stated)	1.6	.
O=C(CCc1nc2sc3c(c2c(=O)[nH]1)CCCCC3)N1CCN(c2ccc(Cl)cc2)CC1	0.77	.
Cc1[nH]c(C)c(S(=O)(=O)N2c3ccccc3CC2C)c1C(=O)N1CCCC1 (configuration not stated)	0.39	.
COCCn1c(SCC(=O)N2CCCc3ccccc32)nc2c([nH]c3ccccc32)c1=O	2	.
O=c1[nH]c(SCC#CCO)nc2ccccc12	.	-1.4
COCc1cc(=O)[nH]c(Nc2nc(C)c3ccccc3n2)n1	.	-0.33
COc1ccc(N(Cc2nc3ccccc3[nH]2)C2=NC3CS(=O)(=O)CC3S2)cc1 (configuration not stated)	0.32	0.73
COCCCN1C(=O)c2[nH]nc(-c3ccccc3O)c2C1c1cc(Br)c(O)c(OC)c1 (configuration not stated)	-1.3	-0.61
CC(C)Cn1c(NC2CCCCC2)nc2c1c(=O)[nH]c(=O)n2C	-1.4	-0.49
Cc1[nH]c2ccccc2c1C1(O)C(=O)N(Cc2ccccc2Cl)c2ccccc21 (configuration not stated)	1.6	1.9
